# Calb FLC: C. albicans growth inhibition with fluconazole, primary screen, CaCi-2 strain, Alamar Blue fluorescence; C. albicans CaCi-2 (fluconazole-resistant clinical isolate) + fluconazole, 48 h; growth inhibition, % (test concentration not listed); 300,000 tested, 0.57% active; AID 1979, 2009;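 active = most replicates above 75%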;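 also: all wells also contain fluconazole at 8 µg/ml as a sub-toxic cotreatment; 0% = median of DMSO wells and 100% = median of geldanamycin control wells; wells of about 8 µL received 7.5 nL stock; the first replicate is given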
# Beta2AR agonist: beta2AR agonists driving receptor internalization, primary screen, cell-based, FAP fluorogen, flow cytometry; Beta-2 adrenergic receptor (Homo sapiens), P07550; Am2.2-beta2AR cells; reference of the scale not given here; response, % (test concentration not listed); 340,000 tested, 0.43% active; AID 504454, 2011;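 active = response above a set limit, near 3 SD of response in nonfluorescent compounds, cut at about 42% in these data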;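 also: stock transfer was 100 nL into about 11 µL; a reference agonist was the positive control; negative values mostly stem from fluorescent compounds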
# Target sequence (P07550 whole entry, looked up): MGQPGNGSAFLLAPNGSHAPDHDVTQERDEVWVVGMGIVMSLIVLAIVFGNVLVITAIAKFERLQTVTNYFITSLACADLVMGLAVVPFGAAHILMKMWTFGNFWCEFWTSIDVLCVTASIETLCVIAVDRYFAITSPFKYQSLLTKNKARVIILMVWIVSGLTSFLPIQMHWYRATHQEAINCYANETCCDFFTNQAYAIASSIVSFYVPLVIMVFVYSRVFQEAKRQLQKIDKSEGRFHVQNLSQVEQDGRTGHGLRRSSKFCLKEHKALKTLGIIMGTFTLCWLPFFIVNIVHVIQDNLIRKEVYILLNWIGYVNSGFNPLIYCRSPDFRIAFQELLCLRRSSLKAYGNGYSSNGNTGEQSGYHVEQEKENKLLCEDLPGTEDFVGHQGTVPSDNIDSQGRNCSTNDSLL
# Beta apoptosis: inhibitors of cytokine-induced beta cell apoptosis, primary screen, luminescence; protection from apoptosis, % (test concentration not listed); INS-1E cytokine-induced death, ATP luminescence, 48 h; percent of positive-control rescue, neutral wells zero; 300,000 tested, 0.8% active;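 active = all replicates at 75% or more, or half of them and the mean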;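 also: 0% = cytokine-treated negative control wells and 100% = positive control rescue; higher means more ATP so stronger rescue from cytokine killing; wells of about 40 µL received 100 nL stock; the first replicate is given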
# ALR H2O2 inh: inhibitors of human ALR sulfhydryl oxidase, primary screen, biochemical, H2O2 detection, HRP-luminol luminescence, single point. FAD-linked sulfhydryl oxidase ALR (Homo sapiens), P55789. purified ALR, DTT oxidation. inhibition, % (concentration not given with the values). 290,000 tested, 3.8% active;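 active = mean and each replicate at 75% or more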;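 also: stock transfer was 7.5 nL into about 7.5 µL; 0% = neutral wells and 100% = wells with inactivated enzyme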
# Target sequence (P55789 whole entry, looked up): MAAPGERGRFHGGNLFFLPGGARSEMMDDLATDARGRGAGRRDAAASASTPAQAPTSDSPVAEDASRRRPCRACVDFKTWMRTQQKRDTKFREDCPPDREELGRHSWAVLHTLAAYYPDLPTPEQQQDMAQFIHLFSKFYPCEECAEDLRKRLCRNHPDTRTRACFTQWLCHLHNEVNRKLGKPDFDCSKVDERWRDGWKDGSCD
# rRNA inh HTS: reduced GFP signal of wild-type E. coli, primary screen, bacterial rRNA inhibitor project, GFP/RFP fluorescence, OD600, single point; 350,000 tested, 1.6% active; GFP signal change (wild-type ribosome), % (concentration not given with the values); E. coli WT GFP vs humanized-ribosome RFP mutants, 24 h; hits give low values; DMSO median 0, no signal -100;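 active = significant combined selectivity score with lowered wild-type GFP, culture density cut under 30%, mutant RFP and density less affected; inactive = any of these conditions unmet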; also: one replicate is shown; some compounds called inactive have numbers as strong as hits
# T cruzi inh: inhibitors of intracellular T. cruzi growth, primary screen, luminescence, NIH3T3 host cells; T. cruzi beta-gal in NIH3T3, 90 h; inhibition, % (concentration not given with the values); 300,000 tested, 1.4% active;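 active = mean inhibition across valid replicates above about 55%, limit read from the data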;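 also: signal also drops with host cell toxicity which is not excluded here; 0% = plate median of DMSO wells and 100% = zero luminescence signal; higher percent means less beta-gal luminescence so fewer parasites; stock transfer was 50 nL into about 50 µL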
# LANA-H2A inh: blockers of LANA interaction with H2A/H2B – biochemical, FP readout, HTS, primary screen. Protein LANA1 (Human herpesvirus 8 type P (isolate GK18)), Q9QR71. AID 2629, 2010. 320,000 tested, 0.6% active. cell-free LANA-H2A/H2B peptide, fluorescence polarization. inhibition, % (test concentration not listed); in the data active = inhibition mostly above about 10%, no sharp cut-off; inactive = mostly below about 6.7%;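 also: stock transfer was 7.5 nL into about 10 µL; 0% = median of vehicle wells and 100% = median of positive control wells; one replicate is shown; the record names a cut of 25% in any replicate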
# Bfl-1 A1 inh: caspase 3/7 activation in MEF A1-2A-BIM cells, primary screen, A1 inhibitor project, cell-based, luminescence, HTS; Caspase-Glo 3/7 luminescence, 3 h; percent of clofoctol response, vehicle zero; caspase activation, % (concentration not given with the values); AID 2462, 2010; 330,000 tested, 0.066% active;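 active = over half of replicate activation scores above 10%, or exactly half above 10 with the replicate mean above 10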;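 also: wells of about 30 µL received 50 nL stock; many hits fall short of the cut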
# rRNA inh HTS OD600: recorded beside rRNA inh HTS, whose call it bears; OD600 change, %; measured here: OD600 growth;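 optical density of the mix in the first replicate; 0 = DMSO median and -100 = no signal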
# rRNA inh HTS RFP: second read-out of rRNA inh HTS, no call of its own (marks repeat the call); RFP signal change, %; measured here: RFP humanized mutant strains;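 first replicate; 0 = DMSO median and -100 = no signal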
# The depositor's hits bear a star; nt = no result given; + = active, no number. A portion of the library. The share of hits here may be higher or lower than overall.
Structure,Calb FLC,Beta2AR agonist,Beta apoptosis,ALR H2O2 inh,rRNA inh HTS,rRNA inh HTS OD600,rRNA inh HTS RFP,T cruzi inh,LANA-H2A inh,Bfl-1 A1 inh
Cc1cc(C(F)F)n2nc(C(=O)Nc3c(F)cc(F)cc3Br)nc2n1,-10,-12,-2,3,nt,nt,nt,-12,7.3,0.0
COCCSc1ccccc1C(=O)N1CCC(Cc2ccccc2)CC1,5,11,-1,-2,-14,-18,1.0,13,-4.8,0.8
O=C(N/N=C/c1ccc[nH]1)c1cccc(Br)c1,1,3,1,-5,nt,nt,nt,-13,0.8,-1.0
CC1CCN(C(=O)CNS(=O)(=O)c2ccc(Br)s2)CC1,-33,-6,-2,-1,0,4,-2.3,-5,0.4,0.1
Cc1ccc2[nH]c3c(c2c1)CN(C(C)C)CC3,-2,2,-7,-11,14,14,2.5,36,5.1,0.9
Cc1cc(Br)ccc1NC(=O)CN(C)C(=O)CNC(=O)Cc1ccccc1,nt,-4,-11,14,-2,13,-0.8,nt,5.9,1.4
COc1ccc(C(=O)Nc2ccc(S(=O)(=O)Nc3nccnc3OC)cc2)cc1,-7,2,4,-3,nt,nt,nt,-1,-2.1,0.3
COc1ccc2[nH]c(=O)c(CN(C(=O)c3cccnc3)c3ccccc3)cc2c1,-8,-1,-5,-3,5,11,1.2,-10,1.0,0.5
O=C(NCc1ccco1)c1cccnc1Cl,0,-1,-1,-1,5,3,-7.6,-16,1.4,0.3
Oc1c(Br)cc(Br)cc1C=Nc1ccc2c(c1)OCO2,1,5,1,-8,1,6,-0.4,-3,-3.9,-1.2
Cc1cccc(NC(=O)COC(=O)Cc2cccc(C(F)(F)F)c2)c1C,3,-6,1,-16,4,4,-1.3,-10,+,0.6
COc1cccc(OCC(=O)NNC(=O)C(=O)Nc2cccc(C)c2)c1,33,1,-3,1,-1,-9,0.3,-5,-0.7,0.4
COc1cc(CN2CCN(Cc3ccc4cc(F)ccc4n3)CC2CCO)cc(OC)c1 (stereo unspecified),11,2,nt,-3,4,7,5.3,25,-1.4,0.4
CCOC(=O)c1cnc(-n2nc(C)cc2C)[nH]c1=O,-3,-1,-10,-2,4,-4,0.4,-41,1.3,-0.4
CC(=O)N1CC(=O)N=C1SCC(=O)Nc1nc(C)c(-c2ccccc2)s1,-29,6,-58,98*,8,6,13,10,-1.4,0.7
O=C(NCc1ccccc1Cl)C1CCC(=O)N1Cc1ccc(F)cc1 (stereo unspecified),-1,1,-9,-13,1,15,0.0,-1,2.4,-0.1
CC(C)(C)NC(=O)CSc1nc(N)c(NC(=O)c2ccccc2F)c(=O)[nH]1,-8,5,-2,1,nt,nt,nt,-2,1.8,0.6
COC(=O)c1ccc(N=C2SCC(=O)N2C)cc1,-2,-1,0,3,11,4,5.0,0,2.8,0.5
O=[N+]([O-])c1ccc(C2=CSC3=NCCN23)cc1,-14,-1,-6,34,-2,-3,-5.8,1,-2.6,0.1
CC(C)(C)c1ccc(/C=N/OCC(=O)NCc2ccccc2)cc1,-38,-15,-4,0,-18,-21,-10.0,3,1.9,-0.5
O=C(Nc1nnc(SCc2ccccc2F)s1)c1ccco1,14,-7,-8,-11,-2,1,0.0,-10,-2.3,-0.2
O=[N+]([O-])c1ccccc1S(=O)(=O)N1CCN(C2CCN(Cc3ccccc3)CC2)CC1,0,-7,-2,nt,16,10,1.2,14,-2.1,-0.3
CC(Oc1ccc2c3c(c(=O)oc2c1)CCC3)C(=O)NCc1ccccn1 (stereo unspecified),8,0,3,-1,16,9,0.3,-7,-0.8,-0.5
Oc1ccc2cccnc2c1,16,3,2,4,nt,nt,nt,nt,-2.8,0.4
Cc1cccc(N2CCN(C(=O)c3ccc(N4CCCC4=O)cc3)CC2)c1C,-6,-15,-4,0,nt,nt,nt,9,-2.0,1.8
Cc1c(C)n(Cc2ccc(F)cc2)c2ccc(C(=O)NCCCN3CCOCC3)cc12,6,3,-9,-8,-43,-52,3.2,16,0.0,-1.0
COc1ccc2oc(C(=O)Nc3ccccn3)c(C)c2c1,35,-10,3,-1,-5,-14,-1.3,-1,1.6,-7.2
Cc1cccc(-n2ncc(C#N)c2-n2cccc2)c1,-3,1,1,0,nt,nt,nt,-9,-4.1,0.3
COc1cccc(NC(=S)NNC(=O)Cn2nc(C(F)(F)F)cc2C)c1,4,0,-5,29,4,-1,-3.6,-15,4.4,0.5
CCc1cc2c3c(c1)/C(=C1/SC(N)=NC1=O)C(=O)N3C(C)(C)C=C2C,4,34,-3,0,nt,nt,nt,8,-3.2,0.4
NS(=O)(=O)c1ccc(CNC(=O)CSc2nc3ccc(Cl)cc3[nH]2)cc1,-6,1,-7,-3,2,2,1.2,5,2.0,-0.2
Cc1ccc(C)c(N2CCN(C(=O)C3CCN(S(=O)(=O)c4cccc5nsnc45)CC3)CC2)c1,-40,18,14,-27,nt,nt,nt,22,-1.2,0.4
OCCCCNCc1cc(Br)ccc1OCc1ccccc1F,-25,-7,1,-50,18,1,-1.0,1,-1.0,0.6
CCOC(=O)c1ccc(NC(=S)N(CCCN2CCCCC2)Cc2ccco2)cc1,8,0,5,-1,nt,nt,nt,13,-0.8,0.2
CCc1nc(NC2CCCCC2)c(C#N)c2c1COC(C)(C)C2,-10,14,1,nt,nt,nt,nt,-2,-7.4,-0.6
COC(=O)[C@H](CCSC)NC(=O)Nc1ccc(C(C)=O)cc1,-7,-3,0,-5,nt,nt,nt,-5,-2.8,0.3
CCCn1c(O)c(N=N)c2ccccc21,30,-3,-9,0,-5,-6,-14,-5,3.5,-0.1
CC(C)(C)OC(=O)C[C@H]1C/C=C\C[C@H](CC(=O)NCCO)C(=O)NCCOC1=O,nt,8,2,0,4,2,18,nt,6.2,0.7
CCOC(=O)c1[nH]c2ccccc2c1NC(=O)CN(C)C,2,5,nt,-9,nt,nt,nt,-1,-1.0,0.8
COC(=O)c1cc(NC(=O)c2cccnc2)cc(C(=O)OC)c1,40,14,-10,-3,21,22,2.5,-12,-8.4,-0.6
CNC(=O)c1[nH]cnc1C(=O)Nc1ccccc1C,3,-2,-8,-1,nt,nt,nt,-8,-9.9,-0.4
COc1ccc(CN(C)C(=O)c2sccc2-c2ccccc2)c(OC)c1,7,3,-7,1,-50,-78,-14,10,-0.4,0.8
CCN(CC(=O)Nc1c(F)cccc1F)C(=O)CNC(=O)C1CCCCC1,3,1,-3,5,2,-2,-2.2,-3,1.2,-1.1
O=C(CNC(=O)c1ccc2c(c1)OCO2)NCCOc1ccc(Cl)cc1,nt,0,-1,-4,-12,-5,-0.1,nt,2.0,-0.6
Cc1ccc(C(=O)NCC(c2ccco2)N2CCc3ccccc3C2)cc1C (stereo unspecified),2,1,2,-6,-5,-43,-1.8,17,-3.3,0.2
Cc1ccc(CN2CC(C(=O)OCc3ccccc3Cl)CC2=O)cc1 (stereo unspecified),13,3,-2,-17,-14,-32,0.2,-16,8.4,0.4
CC(=O)Nc1ccc(OCC(O)Cn2nc(C)c(C(C)=O)c2C)cc1 (stereo unspecified),-14,7,nt,-13,nt,nt,nt,12,1.9,1.0
CN(c1ccc(OCC(=O)NCCc2ccccc2)cc1)S(=O)(=O)c1ccc(Cl)cc1,2,-3,-5,-15,-4,-12,2.4,31,-4.0,0.2
C/C(=N\O)C(=O)NCC1CCNCC1,4,-11,6,6,nt,nt,nt,-12,1.4,-0.4
Cc1ccc(CN(C(=O)Cn2nnc3ccccc32)C(C(=O)NCc2ccco2)c2ccc(C)o2)cc1 (stereo unspecified),7,-1,3,-2,nt,nt,nt,7,-1.4,-0.1
COc1ccc2nnc(-c3ccc(C(F)(F)F)cc3)n2n1,-4,-7,4,29,6,9,-1.0,-3,-5.6,0.2
Cc1ccc(CSc2nnc(-c3ccccn3)n2N)cc1,-13,-5,-4,-2,-12,-20,0.5,-9,-3.3,0.8
Cc1ccccc1OCC1Cn2c(nc3c2c(=O)n(C)c(=O)n3C)O1 (stereo unspecified),13,12,-2,-13,9,28,3.2,-1,-2.1,0.2
CC1C(=O)N(Cc2ccc(F)cc2)c2ccccc2N1C(=O)c1c(F)cccc1F (stereo unspecified),11,-2,1,-3,-18,-59,0.4,-13,-1.8,0.2
CCOC(=O)/C(=C/C=C1\Sc2cc(OCC)c(OCC)cc2N1CC)C(C)=O,-30,-24,-1,92*,71,-18,63,24,-22,-0.3
O=C(COC(=O)CCc1c[nH]c2ccccc12)Nc1ccccc1C(F)(F)F,nt,-2,-9,9,-4,2,0.3,nt,3.1,-1.9
CC(C)c1ccc(C(=O)Nc2ccc(CN3CCOCC3)cc2)cc1,7,13,3,-7,9,4,-1.4,7,-3.6,0.2
COc1ccccc1C(=O)NN=C1CCN(Cc2ccccc2)CC1,0,-5,-1,-4,nt,nt,nt,3,2.1,0.1
C[n+]1ccccc1/C=C/c1ccc2ncccc2c1,14,1,-1,-18,18,11,0.4,4,4.5,-0.4
Cc1ccc(CONC(=O)/N=C/N(C)C)cc1,8,-1,-4,-5,nt,nt,nt,-6,2.4,-0.1

# New compounds follow.
Structure,Calb FLC,Beta2AR agonist,Beta apoptosis,ALR H2O2 inh,rRNA inh HTS,rRNA inh HTS OD600,rRNA inh HTS RFP,T cruzi inh,LANA-H2A inh,Bfl-1 A1 inh
CCCS(=O)(=O)N1CCCC(C(=O)NC2CCCCC2)C1 (stereo unspecified),0,-4,-2,-1,nt,nt,nt,-4,1.4,-0.5
COc1ccc2c(c1)c(CC(=O)Nc1ccc(C(C)=O)cc1)c(C)n2C(=O)c1ccc(Cl)cc1,-22,-9,1,nt,nt,nt,nt,35,3.4,-1.2
C=CC[C@@H](CC(=O)N(CCO)Cc1ccccc1)C(=O)N[C@@H](COC(=O)[C@H](CC=C)CC(=O)OC(C)(C)C)Cc1c[nH]c2ccccc12,nt,-3,-5,-1,2,-3,7.2,nt,3.7,1.6
CCCN1Cc2cccc(C(=O)NC3CCCC3)c2C1=O,3,-3,-3,10,nt,nt,nt,-10,-2.7,0.4
O=C(Nc1ccccc1)C1C2CCCCC21 (stereo unspecified),-2,0,-4,1,3,6,-1.3,2,-2.3,-0.3
CC1=NN(c2cccc(C(=O)O)c2)C(=O)/C1=C\C=C\c1ccco1,1,6,-1,83*,nt,nt,nt,-1,-5.7,-0.8
